From PubChem BioAssay
Biofilm kill mix – clotrimazole potentiators killing C. albicans biofilm, primary screen, 4-compound mixtures. C. albicans biofilm persisters + clotrimazole, fluorescence viability; primary screen in compound mixtures of four per well. inhibition, % at 7.6 µM. 120,000 tested, 0.02% active. AID 1242, 2008;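 active means inhibition above 30.3% in the primary screen of four-compound pools, then above 30% when the compound was retested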;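 further: compounds exposed to preformed 24 h biofilms for 48 h; the number belongs to the whole pool; some results filed as inactive read as strong as hits; inactives centre near 12; 0% = biofilm with clotrimazole alone and 100% = kill control; retested singly at about 60 µM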
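Incubation: 24 h biofilm formation, then 48 h compound exposure, 37 °C | Material: C. albicans biofilms | Buffer or medium: RPMI/MOPS medium, pH 7.0 | Measured by: 2-h Alamar Blue fluorescence, 535/590 nm excitation/emission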
* marks the source's active call; other numbers are inactive results. Not all compounds are listed (hit frequency here may not be typical).

SMILES | Biofilm kill mix
Cc1ccc(Nc2cc(C)nc(N3CCOCC3)n2)c(C)c1 | 12
CC(OC(=O)c1ccc2ccccc2n1)C(=O)c1ccccc1 (stereo unspecified) | 19
O=C(c1ccco1)N1CCN(Cc2nnnn2CC2CCCO2)CC1 (stereo unspecified) | 11
CN1CCC(=NNC(=O)c2ccc(N(Cc3ccccc3Cl)S(C)(=O)=O)cc2)CC1 | 9
O=C(Cc1ccc([N+](=O)[O-])cc1)NCc1ccccn1 | 10
CCOC(=O)CN(C(=O)COc1nc(-c2ccccc2)cc(C)c1C#N)c1ccccc1 | 3
Cc1sc(N/N=C/c2cc([N+](=O)[O-])ccc2O)nc1-c1ccccc1 | 17
O=C(NC(Cc1ccccc1)C(=O)O)c1ccco1 (stereo unspecified) | 22
C1CCN(CCCNC2C3CC4CC(C3)CC2C4)C1 (stereo unspecified) | 14
Cc1cccc(C)c1NC(=S)N(CCCN1CCN(C)CC1)Cc1cccs1 | 25
O=C(/C=C/c1ccccc1)N/C(=C/c1ccccc1)C(=O)NCCCO | 7
CN1CCN(C(=O)C23CCC(C)(C(=O)C2Br)C3(C)C)CC1 (stereo unspecified) | 23
O=C(N/N=C/c1ccccc1)c1cc(=O)[nH]c2ccccc12 | 23
CC(C)Oc1ccc(-c2nc(NCC3CCCO3)c3ccccc3n2)cc1 (stereo unspecified) | -2
O=C(NC1(C(F)(F)F)NC(=O)N(C2CCCCC2)C1=O)c1ccco1 (stereo unspecified) | 15
COc1ccc(CCNC(=O)CN2C(=O)NC(CCSC)C2=O)cc1 (stereo unspecified) | 13
Cc1ccccc1C(=O)NC=C1C(=O)OC(C)(C)OC1=O | 12
O=C(c1cccc(S(=O)(=O)N2CCCC2)c1)N1CCCc2ccccc21 | 17
Nc1ccc(S(=O)(=O)NC2(C(F)(F)F)NC(=O)N(c3ccccc3Cl)C2=O)cc1 (stereo unspecified) | 10
Cc1sc2ncnc(N/N=C/c3ccccc3O)c2c1C | 24
Nc1nc(SCC(=O)Nc2cccnc2Cl)n[nH]1 | 8
Cc1cc(C(F)(F)F)nn2cnnc12 | 15
O=C(c1ccccc1)C1CN(Cc2ccccc2)CCC1(O)c1ccccc1 (stereo unspecified) | 8
COC(=O)C(NS(=O)(=O)c1ccccc1Cl)c1ccccc1 (stereo unspecified) | 18
C(#Cc1ccccc1)C[N+]1(CC#Cc2cccc3ccccc23)CCOCC1 | 45*

Of the compounds above, these contain a carbonyl joined to an NH by a bond outside any ring.
SMILES | Biofilm kill mix
CN1CCC(=NNC(=O)c2ccc(N(Cc3ccccc3Cl)S(C)(=O)=O)cc2)CC1 | 9
O=C(Cc1ccc([N+](=O)[O-])cc1)NCc1ccccn1 | 10
O=C(NC(Cc1ccccc1)C(=O)O)c1ccco1 (stereo unspecified) | 22
O=C(/C=C/c1ccccc1)N/C(=C/c1ccccc1)C(=O)NCCCO | 7
O=C(N/N=C/c1ccccc1)c1cc(=O)[nH]c2ccccc12 | 23
O=C(NC1(C(F)(F)F)NC(=O)N(C2CCCCC2)C1=O)c1ccco1 (stereo unspecified) | 15
COc1ccc(CCNC(=O)CN2C(=O)NC(CCSC)C2=O)cc1 (stereo unspecified) | 13
Cc1ccccc1C(=O)NC=C1C(=O)OC(C)(C)OC1=O | 12
Nc1nc(SCC(=O)Nc2cccnc2Cl)n[nH]1 | 8

The listing continues:
SMILES | Biofilm kill mix
O=C(O)c1ccc2c(c1)OCCCO2 | 6
COc1ccccc1-c1cc(C(F)(F)F)nc(S(=O)(=O)CCCC(=O)NCc2ccc(F)cc2)n1 | 11
CCc1ccc(NC(=O)C/C(C)=N/NC(=O)OCc2ccc(OC)cc2)cc1 | 7
Cc1ccc(NCC(=O)N=Nc2c(O)n(C)c3ccccc23)cc1 | 28
COc1ccccc1/C=N/NC(=O)CNC(=O)c1ccc(S(=O)(=O)N2CCCC2)cc1 | 19
O=C(COC(=O)COc1ccc2ccccc2c1)NCC(F)(F)F | 11
COc1ccc(NC(NC(=O)c2cccnc2)C(Cl)(Cl)Cl)cc1 (stereo unspecified) | 26
Cc1nn(C)cc1C(C)NCc1c(C(=O)N2CCCCCCC2)nc2ccc(Cl)cn12 (stereo unspecified) | -14
CCNc1nc(NC(C)C)nc(N(C)C#N)n1 | 9
O=C(NNC(=O)C(O)(c1ccccc1)c1ccccc1)C1CC1 | 2
CCN1CCN(C(=O)CCN2C(=O)c3ccccc3C2=O)CC1 | 23
NS(=O)(=O)c1ccc(CCNC(=O)CN2CCN(c3cccc(Cl)c3)CC2)cc1 | 9
Cc1cccn2cc(-c3c[nH]c4ccccc34)nc12 | 22
Cc1ccsc1C(=O)N1CCCC(CCC(=O)NCc2ccccc2F)C1 (stereo unspecified) | 3
CCc1ccc(C(C(=O)NC2CCCC2)N(C(=O)/C=C/C(=O)Nc2cc(C)on2)c2ccccc2C)cc1 (stereo unspecified) | 6
Cc1cccc(C)c1Nc1nnc(SCC(=O)NCc2cccs2)s1 | 3
CCOC(=O)Cc1c(C)nc(Cc2ccc(OC(C)C)cc2)[nH]c1=O | 9
CCCn1nc(C(=O)OCC(=O)Nc2ncc(Cl)c(C)c2Cl)c2ccccc2c1=O | 15
CCOc1ccc(NC(=S)N(CCCN2CCOCC2)Cc2cn(C)c3ccccc23)cc1 | 23
O=C(Nc1ccccc1F)c1ccco1 | 12
Cc1ccc(-c2nc3ccccc3s2)cc1NC(=S)NC(=O)c1cccc2ccccc12 | 11
O=C(CSc1nnc(C2CC2)n1Cc1ccco1)NCC(F)(F)F | 14
COc1ccccc1OCc1ccc(C(=O)N2CCOCC2)o1 | 1
Nc1ccc(Nc2ccccc2)c(S(=O)(=O)O)c1 | 20
O=C(CSc1nnc(-c2n[nH]c3ccccc23)n1-c1ccccc1)Nc1ccccc1Cl | 14

Arranged by SMILES length (high to low): part of the list above
SMILES | Biofilm kill mix
CCc1ccc(C(C(=O)NC2CCCC2)N(C(=O)/C=C/C(=O)Nc2cc(C)on2)c2ccccc2C)cc1 (stereo unspecified) | 6
CCCn1nc(C(=O)OCC(=O)Nc2ncc(Cl)c(C)c2Cl)c2ccccc2c1=O | 15
O=C(COC(=O)COc1ccc2ccccc2c1)NCC(F)(F)F | 11

Next structures
SMILES | Biofilm kill mix
Cc1cc(NC(=O)CSc2nc(=O)cc(N)n2-c2ccc(Cl)cc2)no1 | 12
CCN(CC)c1ccc(/C=C2\CCC(/C=C(\C#N)C(=O)Nc3ccccc3F)=C2N2CCOCC2)cc1 | 14
COc1ccc2nc(SCCN(C)C)[nH]c2c1 | 8
Cc1cc(C(=O)Nc2ccccc2N2CCCCC2)no1 | 12
Oc1ccc(/C=N/N(Cc2ccccc2)c2ccccc2)cc1 | 13
Cc1cccc(Nc2cc(=O)[nH]c(=O)[nH]2)c1 | 7
CCOc1ccc2c(c1)c(N=NC(N)=S)c(O)n2C | 14
COc1ccc(-c2c(O)c(C#N)c(-c3ccccc3)n(-c3ccc(OC)cc3)c2=O)cc1 | 5
Cc1ccc(NC(=O)Cn2c(O)c(N=NC(=O)c3cc([N+](=O)[O-])ccc3O)c3ccccc32)cc1 | 24
CCOC(=O)C1CCN(c2c(NCc3ccc(C(=O)Nc4ccc(C)cc4)cc3)c(=O)c2=O)CC1 | 6
N#C/C(=C(/O)c1ccc(-c2cccc([N+](=O)[O-])c2)o1)c1nc2ccccc2s1 | 6
O=C(NCc1ccc(Cl)cc1)c1ccc(OCC2CCCO2)cc1 (stereo unspecified) | 11
O=C(Nc1ccc(-c2nc3cc(Cl)ccc3o2)cc1)C1CCCO1 (stereo unspecified) | 16
COC(CN(C)C(C(=O)NC1CCCCC1)c1ccccc1)OC (stereo unspecified) | 9
O=C(c1ccc2c(c1)OCO2)C1CCCN(Cc2cc(F)ccc2-n2cccn2)C1 (stereo unspecified) | 18
O=C(CCSc1ccccc1)N1CCCC1 | 19
COc1cccc(CNC(=O)CCC2CCCN(C(=O)c3cccc(Cl)c3)C2)c1 (stereo unspecified) | 17
CCOC(=O)CSc1nnc(CNc2ccc(Cl)cc2)n1Cc1ccccc1 | 16
O=C(N/C(=C\c1ccc(Br)cc1)C(=O)N1CCCC1)c1cccs1 | 10
NC(=O)c1nn(-c2ccccc2)nc1NC(=O)CN1CCCC1 | 19
O=C(/C=C/c1ccco1)N(Cc1ccc(Cl)cc1)C1CCS(=O)(=O)C1 (stereo unspecified) | 9
COc1ccc(-c2csc(N)n2)cc1F | 14
O=C(NCCc1ccccc1)c1cnc2n(c1=O)CCS2 | 16
COc1ccc(OC)c(N(CC(=O)Nc2cccc(C(F)(F)F)c2)S(C)(=O)=O)c1 | 9
CCC1(c2ccccc2)NC(=S)N(c2ccc(C)c(C)c2)N1 (stereo unspecified) | -17
More records.
SMILES | Biofilm kill mix
CCOc1ccccc1NC(=S)NNS(=O)(=O)c1c(C)cc(C)cc1C | 11
O=C(CN1C(=O)C2CC=CCC2C1=O)Nc1nc2ccc(F)cc2s1 (stereo unspecified) | 18
COc1c(/C=N/NC(=O)[C@H]2C[C@@H]2c2ccccc2)c(CCN(C)C(C)=O)cc2c1OCO2 | 16
N#Cc1ccc(NC(=O)c2cc(=O)c3ccccc3o2)cc1 | 13
CCOc1ccc(NC(=S)Nc2ccc(OCc3ccccc3)cc2)cc1 | 15
CCC(=O)c1ccc(OC(=O)c2cnccn2)cc1 | 2
CCCCc1ccc(NC(=S)NCCO)cc1 | 12
CCCc1cc(=O)[nH]c(SCC(=O)c2cc(C)n(-c3cc(C)on3)c2C)n1 | 11
CCOC(=O)N1CCN(c2c(N3CCN(C(=O)OCC)CC3)c(=O)c2=O)CC1 | 31
Cc1occc1C(=O)N/N=C/c1cnn(C)c1C | 11
O=C(NNC(=O)c1ccc(F)cc1)C(=O)N1CCCCC1 | 11
N/C(=N\OC(=O)c1ccc2c(c1)OCO2)c1ccc(Br)cc1 | 8
O=C(CN1CCOCC1)N/N=C/C(Br)=C\c1ccccc1 | 22
Cc1cccc(C(P(=O)(c2ccccc2)c2ccccc2)P(=O)(c2ccccc2)c2ccccc2)n1 | 1
COC1CCCCC1Nc1ccc(C)c(C)c1 (stereo unspecified) | 6
O=c1c(/C=N/OCc2ccc(Cl)cc2Cl)c[nH]n1-c1cccc(Cl)n1 | 12
Cc1ccc(C)c(Nc2ccc(C(=O)NCCc3ccccc3)cn2)c1 | 6
Cc1ccc2cc(CN(CC3CCCO3)C(=S)Nc3ccccc3)c(=O)[nH]c2c1C (stereo unspecified) | 13
CCCCn1c(/N=C/c2ccc(N(C)C)cc2)nc2ccccc21 | 8
COc1ccc(NC(=O)CC2CCCC2)cc1S(=O)(=O)N1CCCCC1 | 16
CC(=O)c1c(C)nn(CC(O)COc2ccc3ccccc3c2)c1C (stereo unspecified) | 28
Cc1[nH]n(-c2cccc(Cl)c2)c(=O)c1C=NCC(C)C | 9
C/C(=N\NC(=O)CSCc1ccc([N+](=O)[O-])cc1)c1ccccc1 | 8
O=C(NCCc1ccc(Cl)cc1)/C(=C/c1cccnc1)NC(=O)c1ccccc1 | 19
Clc1nc(NCc2ccco2)nc(N2CCCCC2)n1 | 17
Further structures
SMILES | Biofilm kill mix
CCO/C=C1/C(=O)N(c2ccccc2OC)C(=O)c2ccccc21 | 1
Nc1ccccc1SCc1ccccc1Cl | 24
CC(=O)NCC1CCCN(Cc2cn(-c3ccccc3F)nc2-c2cc(C)sc2C)C1 (stereo unspecified) | 25
O=c1c2ccccc2[nH]c(=S)n1Cc1ccc2c(c1)OCO2 | 13
CCOC(=O)C(C)/C(C)=N\Nc1ccc([N+](=O)[O-])cc1[N+](=O)[O-] (stereo unspecified) | 15
CC(=O)N1CCn2c3ccc(C)cc3c3cccc1c32 | 11
CC(C)CN1CCC(=O)N([C@H](CSc2ccc(Br)cc2)Cc2ccccc2)CC1 | 13
CC(=O)O/N=C/c1c(C)c(C=O)n2ccccc12 | 6
CNC(=O)N(O)C1N(/N=C/c2ccccc2O)C(=S)SC1(C)C (stereo unspecified) | 8
CCOC(=O)C1(Cc2ccccc2)CCCN(Cc2ccccn2)C1 (stereo unspecified) | 19
CC#CC#Cc1cccc(=O)o1 | 20
COc1ccc(-c2ccc(/C=C3/C(=N)N4C(C)=CSC4=NC3=O)o2)c([N+](=O)[O-])c1 | 5
COc1ccc(/C(N)=N/OC(=O)CCCN2C(=O)c3ccccc3C2=O)cc1OC | 10
CC1(C)CN(c2cccc(Br)c2)C1=O | 8
COc1ccccc1N1CCN(/N=C/c2cc(OC)c(O)c(OC)c2)CC1 | 13
CSCC(=O)N1CCCC(C(=O)c2cc(F)ccc2F)C1 (stereo unspecified) | 1
C=CCC(Nc1ccccc1)C12C=CC(O1)C(C(=O)OC)=C2C(=O)OC (stereo unspecified) | 16
Cc1cccc(C(=O)Nc2cccc(-c3ccc4nncn4n3)c2)c1 | 17
O=C(Oc1ccc(-c2nnco2)cc1)N1CCOCC1 | 2
Cc1cccc(NC(=O)NNC(=O)COc2ccc(Cl)cc2)c1 | -3
COc1ccc(CNC(=O)CCSCc2cccc(Cl)c2)c(OC)c1 | 15
O=C(CNC(=O)c1ccccc1O)N/N=C/c1cc(Br)ccc1OC(=O)/C=C/c1ccco1 | 16
O=C(c1ccccc1)c1ccccc1C(=O)c1ccccc1 | 19
CC(C)NC(=O)/C(C#N)=C/c1ccc(N(C)C)o1 | 15
Cc1oc2ccc(O)c(CN(C)C)c2c1C(=O)c1ccccc1 | 18
O=C(CSc1nnc(SCc2cccc3ccccc23)s1)N/N=C/c1c[nH]c2ccccc12 | 11
COc1ccc(OCC(=O)Nc2cccc(C(=O)Nc3ccccc3C(=O)O)c2)cc1 | 12

Of the compounds above, these have a thiophene ring, fused or not:
SMILES | Biofilm kill mix
Cc1cccc(C)c1NC(=S)N(CCCN1CCN(C)CC1)Cc1cccs1 | 25
Cc1sc2ncnc(N/N=C/c3ccccc3O)c2c1C | 24
Cc1ccsc1C(=O)N1CCCC(CCC(=O)NCc2ccccc2F)C1 (stereo unspecified) | 3
Cc1cccc(C)c1Nc1nnc(SCC(=O)NCc2cccs2)s1 | 3
O=C(N/C(=C\c1ccc(Br)cc1)C(=O)N1CCCC1)c1cccs1 | 10
CC(=O)NCC1CCCN(Cc2cn(-c3ccccc3F)nc2-c2cc(C)sc2C)C1 (stereo unspecified) | 25
